KCNQ2 inh: KCNQ2 potassium channel inhibitors, primary screen, cell-based, CHO-K1, FluxOR thallium flux, B-score (AID 2156) | 310,000 tested, 1.1% active | 20 min; active compounds read low; only compounds with negative scores are shown here; some inactives read as strong as hits | B-score at 10 µM | O88943;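 active means fluorescence ratio B-score at most minus 3 library SDs, with starting brightness B-score within 2 library SDs, cut at about -5.5 in these data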
Target sequence (O88943 whole entry, looked up): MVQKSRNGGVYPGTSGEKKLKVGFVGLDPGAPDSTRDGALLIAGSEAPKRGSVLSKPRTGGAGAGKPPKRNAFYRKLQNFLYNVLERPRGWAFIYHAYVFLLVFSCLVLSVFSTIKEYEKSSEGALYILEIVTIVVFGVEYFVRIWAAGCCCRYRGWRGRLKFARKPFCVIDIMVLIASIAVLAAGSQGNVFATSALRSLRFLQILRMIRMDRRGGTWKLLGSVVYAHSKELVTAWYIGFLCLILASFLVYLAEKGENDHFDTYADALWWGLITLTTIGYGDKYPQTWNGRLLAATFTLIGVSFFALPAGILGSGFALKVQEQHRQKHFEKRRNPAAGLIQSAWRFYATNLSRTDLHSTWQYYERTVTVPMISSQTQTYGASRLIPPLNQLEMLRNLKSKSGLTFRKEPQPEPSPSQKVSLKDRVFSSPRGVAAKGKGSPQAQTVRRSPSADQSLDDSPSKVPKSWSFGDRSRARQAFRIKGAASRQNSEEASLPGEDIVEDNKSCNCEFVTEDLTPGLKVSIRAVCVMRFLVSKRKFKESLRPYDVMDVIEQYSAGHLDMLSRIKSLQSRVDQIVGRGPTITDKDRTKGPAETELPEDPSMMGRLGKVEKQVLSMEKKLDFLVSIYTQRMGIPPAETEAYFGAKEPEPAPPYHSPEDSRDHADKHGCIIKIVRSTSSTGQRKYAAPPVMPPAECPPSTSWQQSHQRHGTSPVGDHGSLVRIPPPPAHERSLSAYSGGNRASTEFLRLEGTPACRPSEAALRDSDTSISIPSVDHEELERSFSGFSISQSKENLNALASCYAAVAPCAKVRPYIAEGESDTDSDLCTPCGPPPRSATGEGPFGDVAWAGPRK
KCNQ2 inh baseline: further read-out of KCNQ2 inh, marked with its call; B-score; measured here: initial fluorescence intensity artifact check;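 brightness before thallium and not channel activity; 0 = typical well and far values either way flag optical interference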
Starred values were filed as active, the others as inactive; i = inactive. These rows are one share of the data; the hit share may differ from the screen's.

SMILES	KCNQ2 inh	KCNQ2 inh baseline
Cc1ccccc1NC(=O)Cc1nnc(SCc2ccc(Cl)c(Cl)c2)n1C	i	0.96
COC(=O)/C=C1/N/C(=N\c2nc(C)cc(C)n2)N(c2ccc(Cl)cc2)C1=O	i	-0.07
Cc1cc(C)c(S(=O)(=O)CCC(C)C)c(=O)[nH]1	i	-0.14
CC(=O)c1cccc(NC(=O)C2CCCC2)c1	i	-2.29
COc1ccc(CCNC(=O)C2(C)CCC(=O)N2Cc2ccc(F)cc2Cl)cc1OC (stereo not drawn)	i	-0.07
CCOC(=O)C1=NN(c2ccc(Cl)cc2)/C(=C/C2=NCCc3cc(OC)c(OC)cc32)S1	i	1.32
O=C(Nc1ccc2c(c1)OCO2)C1CCN(S(=O)(=O)c2ccc3c(c2)OCCO3)CC1	i	0.47
CCN1CCCC1CNC(=O)C1CCN(Cc2nc(-c3cccc(Br)c3)oc2C)CC1 (stereo not drawn)	i	-2.68
COC(=O)c1c(C)oc2ccc(N(C(=O)Oc3ccccc3)S(=O)(=O)c3ccccc3)cc12	i	-0.79
COc1ccc(S(=O)(=O)Nc2cccc(S(=O)(=O)NC3=NCCC3)c2)cc1[N+](=O)[O-]	i	0.81
Brc1ccccc1-n1nnc(-c2cnc3ccccc3c2)n1	i	-1.22
COc1ccc(Nc2nc(-c3cccc(OC)c3O)nc3ccccc23)cc1	i	-0.52
COc1ccc(S(=O)(=O)N2CCCC(C(=O)NC3CCCCC3)C2)cc1 (stereo not drawn)	i	0.74
O=C(NCCc1ccccc1)c1ccc2nc(N3CCOCC3)sc2c1	i	-0.85
COCCN(C(=O)c1cc(-c2ccncc2)nc2ccccc12)c1c(N)n(CC(C)C)c(=O)[nH]c1=O	i	0.68
CN(C)c1ccc(/C=N/NC(=O)CCC(=O)NCc2ccccc2)cc1	i	0.14
Cc1ccc(-c2c3c([nH]c(=S)c2C#N)CCCC3)o1	i	-0.82
O=C(Nc1ccccc1NC(=O)NC1CCCCC1)NC1CCCCC1	i	1.16
CCOC(=O)c1c(CN2CCCCC2)n(C)c2cc(Br)c(O)c(CN(C)C)c12	i	-1.22
O=C(O)CC(CNS(=O)(=O)c1cccc2nsnc12)c1ccccc1 (stereo not drawn)	i	-0.22
COc1cccc(CN2CC(C(=O)NCCOc3cccnc3)CCC2=O)c1 (stereo not drawn)	i	-0.17
c1ccc(-c2nc(-c3cccnc3)cs2)cc1	i	-0.05
Oc1[nH]c(N=C2N=c3ccccc3=N2)c2ccccc12	i	2.33
O=C(NN1CCOCC1)c1ccc(S(=O)(=O)N2CCCCC2)cc1	i	1.48
CCOc1ccc(CCN2C(=O)C(=O)N([C@H](CCCN(C)Cc3ccccc3)CNCc3ccccc3)C[C@@H]2C(C)C)cc1	i	-0.21
CN(C)C(CNC(=O)c1ccc(Br)cc1)c1ccco1 (stereo not drawn)	i	-1.63
c1ccc(-c2oc3ncnc(NCCCn4ccnc4)c3c2-c2ccccc2)cc1	i	2.8
CC(C)=CCC/C(C)=C/CC(C)(C)CNCCN1CCNCC1	i	-0.83
Cc1cc(C)c2c(=O)[nH]c(SCC(=O)N3CCOCC3)nc2n1	i	0.45
CCc1ccccc1NC(=O)NCc1ccccn1	i	-0.21
Cc1cc2cc(CN(Cc3nnnn3C3CCCCC3)CC3CCCO3)c(=O)[nH]c2cc1C (stereo not drawn)	i	-0.05
Cc1ccccc1CSCC(=O)Nc1ccccc1F	i	0.17
CC(NC(=O)CSc1nnc(-c2cc3cc(Cl)ccc3o2)n1C)c1ccccc1 (stereo not drawn)	i	1.53
CC1=CC(C)(C)N(C(=O)CSc2nccn2C)c2cc(C)ccc21	i	0.81
CCn1c(-c2ccccc2Cl)nn(CC(=O)Nc2ccc(OC)cc2)c1=S	i	1.03
COC(Cc1n[nH]c(=S)n1-c1ccccc1)OC	i	2.23
CCn1c(SCC(=O)c2ccc3c(c2)OCCO3)nnc1-c1ccco1	i	1.71
COc1ccc2oc(C(=O)OC/C(O)=C(\C#N)c3nc4ccccc4[nH]3)c(C)c2c1	i	-0.85
O=[N+]([O-])c1ccc(CN2CCOCCOCCN(Cc3ccc([N+](=O)[O-])cc3)CCOCC2)cc1	i	-0.03
Cc1cc(C)cc(-n2c(C)cc(C(=S)N3CCOCC3)c2C)c1	i	-0.43
Cn1cccc1C(=O)OCC(=O)c1cc2ccccc2o1	i	0.92
CSC(=NC#N)N1CCN(c2ccccn2)CC1	i	-0.38
CC(=O)Nc1cccc(NC(=O)CSc2ncc(-c3ccc(Cl)cc3)n2Cc2ccco2)c1	-6.64*	-1.75*
Cc1cccc(NC(=O)CNC(=O)c2cccs2)n1	i	0.26
CCN(CC(=O)Nc1ccc(NC(C)=O)cc1)C(=O)/C=C/c1ccc(S(=O)(=O)N2CCCCCC2)cc1	i	0.15
O=C(CSc1ncnc2scc(-c3ccc(Cl)cc3)c12)NCc1ccc2c(c1)OCO2	i	-0.44
O=C(NCCO)C(=O)NCC1OCCCN1S(=O)(=O)c1cc(F)ccc1F (stereo not drawn)	i	0.01
Nc1nc2nonc2nc1N	i	-0.98
CCN(CC)C(=O)CSc1nc2ccccc2c(=O)n1CCC(=O)NCCc1ccc(OC)c(OC)c1	i	-1.34
COc1ccccc1-c1cn(S(=O)(=O)c2ccc(C)cc2)nc1N	i	-1.32
CCC(=O)Nc1nonc1-c1nc2ccccc2n1Cc1ccccc1	i	0.63
CCOC(=O)N1CCC(N2C(=O)c3ccccc3C2Nc2ccccc2)CC1 (stereo not drawn)	i	0.93
O=C(CC1C(=O)NCCN1Cc1ccc(F)cc1Cl)NCc1ccon1 (stereo not drawn)	i	0.03
CC(C)N(Cc1ccccc1)C(=S)NCc1ccccc1	i	0.07
O=C(c1cccs1)N1CCN(C/C=C/c2ccccc2)CC1	i	1.58
Cc1cc(C(=O)N2CCCCCC2)cs1	i	-2.92
O=C(CCC1N=C2c3ccccc3N=C(SCc3ccccc3Cl)N2C1=O)NCc1ccco1 (stereo not drawn)	i	-1.29
Fc1ccccc1OCCSc1nnnn1-c1ccccc1	i	1.87
O=C(CCc1nc2ccccc2c(=O)[nH]1)OCc1cccc(C(F)(F)F)c1	i	-0.75
CCOC(=O)C(NC(=O)c1ccccc1Cl)(Nc1ccc(C(F)(F)F)cc1)C(F)(F)F (stereo not drawn)	i	1.38
Other entries follow:
SMILES	KCNQ2 inh	KCNQ2 inh baseline
C=CCNc1nc2c3ccccc3n(C(C)=O)c2s1	i	-0.48
Cc1ccccc1NC(=O)c1sc(Cl)nc1-c1ccccc1	-8.66*	-0.85*
CCCC1(c2ccccc2)NC(=O)N(CC(=O)NCc2ccc(C)cc2)C1=O (stereo not drawn)	i	2.59
Cn1c(NC(=O)COc2ccccc2)cc(=O)n(C)c1=O	i	1.03
COC(=O)c1ccc(SCC(=O)NC2CCCCC2)c([N+](=O)[O-])c1	i	1.07
Cc1onc(-c2c(F)cccc2Cl)c1C(=O)OCC(=O)NC(c1ccccc1)c1ccccc1	-5.58*	0.16*
CC(C)c1ccc(C2NC(=O)CCC2[N+](=O)[O-])cc1 (stereo not drawn)	i	0.33
COc1cc(CNCCN2CCOCC2)ccc1OCC(=O)NC(C)(C)C	i	-0.78
CCCOc1ccc(OC(=O)c2ccc(Br)o2)cc1	i	-0.6
CSCCC(=O)NC1CCCN(CCc2ccccc2)C1 (stereo not drawn)	i	0.34
CN(CC(=O)Nc1ccccc1Cl)C(=O)COC(=O)c1cnccn1	i	1.32
Cc1ccccc1-c1nc(CN2CCC(C(=O)NC3CCN(Cc4ccccc4)CC3)CC2)c(C)o1	i	1.31
CC(C)Oc1ccccc1OCCCCn1cnc2ccccc2c1=O	i	-1.14
CCOC(=O)N1CCN(S(=O)(=O)N2CCCC(C(=O)NCc3ccccc3Cl)C2)CC1 (stereo not drawn)	i	1.67
Cc1ccc(N2C(=O)C3CCCN3C2=S)cc1C (stereo not drawn)	i	-0.53
CCN1CCN(C(=O)c2ccccc2Nc2ccc(SC(F)F)cc2)CC1	i	-0.02
Cc1ccc(OC(=O)COc2ccccc2C)c(-n2nc3ccccc3n2)c1	i	-1.33
CSc1ccc(CN(C)C(=O)C23CC4CC(CC(Cl)(C4)C2)C3)cc1	i	0.58
COc1ccc(C(=O)Nc2ccccc2C(=O)NC(C(=O)NCc2ccco2)C(C)C)cc1 (stereo not drawn)	i	2.21
CCOc1ccc(-n2cnc3c(=O)[nH]c(N)nc32)cc1	i	-0.26
COc1ccc(CNC(=O)c2cccnc2Sc2ccc(C)c(C)c2)cc1	i	-0.24
O=C(NC1CCCCCC1)C1c2ccccc2C(=O)N1Cc1cccnc1 (stereo not drawn)	i	1.84
CC(=O)c1cccc(NC(=S)NCCC2=CCCCC2)c1	i	1.17
COCCn1c(=NC(=O)c2ccc3c(c2)OCCO3)sc2cc(S(N)(=O)=O)ccc21	i	-1.47
Cc1ccc(C2SCCN2C(=O)c2ccc([N+](=O)[O-])cc2)cc1 (stereo not drawn)	i	-0.05
O=C(c1ccccn1)N(c1ccccc1)C1(C(=O)NC2CCCCC2)CCCCC1	i	0.12
Cc1ccccc1/C=C/c1nc2ccccc2c(=O)n1Cc1ccccc1	i	-1.14
CC(C(=O)NC(C)(C)C)N1C(=O)c2cccc3cccc(c23)C1=O (stereo not drawn)	i	-0.98
O=C(Nc1nccs1)c1cccc(S(=O)(=O)N2CCCC2)c1	i	0.26
O=C(O)C1C2C=CC(C2)C1C(=O)NCCCN1CCOCC1 (stereo not drawn)	i	0.11
O=[N+]([O-])c1ccc(S(=O)(=O)NCCN2CCOCC2)cc1	i	-0.68
COc1ccc([N+](=O)[O-])cc1NC(=O)c1cccs1	i	0.39
CC(C)(C)c1nc2c(s1)CCc1onc(-c3ccc(Br)cc3)c1-2	i	0.06
COc1ccc(COc2cc(-c3cccc(OC)c3)nc3ccc(N)cc23)cc1	i	-2.13
Cc1cc(C)cc(NS(=O)(=O)c2ccc(Oc3ncc(C(F)(F)F)cc3Cl)cc2)c1	i	-0.15
O=C(c1cc(-c2ccc(O)cc2)on1)N1CCN(c2ccc(F)cc2)CC1	i	-0.92
C#Cc1ccc([C@@H]2C=C(C(=O)N3CCN(Cc4ccc5c(c4)OCO5)CC3)O[C@H](OCC)[C@H]2CCCO)cc1	i	-1.12
O=S(=O)(c1cccc2nsnc12)N1CCc2ccccc2C1	i	-0.35
CC1CC(C)CN(S(=O)(=O)c2ccc(NC(=O)C3CSC4(C)CCC(=O)N34)cc2)C1 (stereo not drawn)	i	-1.62
CCCNC(=O)Cn1c(=O)oc2ccccc21	i	0.96
Cc1noc(C)c1S(=O)(=O)N1CCC(C(=O)N2CCN(Cc3ccc4c(c3)OCO4)CC2)CC1	i	1.18
O=C(CCN1CCc2ccccc2C1)c1ccc2c(c1)OCCO2	-8.33*	0.55*
O=Cc1ccc2cccnc2n1	i	-0.76
Cc1ccc(NC(=O)Cn2cnc([N+](=O)[O-])c2)cc1C	i	2.89
O=C1CCCN1c1ccc(S(=O)(=O)NCCc2ccc(Cl)cc2)cc1	i	0.69

Ordered by length of the SMILES (lowest first): some entries from above
SMILES	KCNQ2 inh	KCNQ2 inh baseline
CCCNC(=O)Cn1c(=O)oc2ccccc21	i	0.96
O=S(=O)(c1cccc2nsnc12)N1CCc2ccccc2C1	i	-0.35
COc1ccc([N+](=O)[O-])cc1NC(=O)c1cccs1	i	0.39
O=C(Nc1nccs1)c1cccc(S(=O)(=O)N2CCCC2)c1	i	0.26
Cc1ccc(NC(=O)Cn2cnc([N+](=O)[O-])c2)cc1C	i	2.89
Cc1ccccc1/C=C/c1nc2ccccc2c(=O)n1Cc1ccccc1	i	-1.14
O=[N+]([O-])c1ccc(S(=O)(=O)NCCN2CCOCC2)cc1	i	-0.68
O=C1CCCN1c1ccc(S(=O)(=O)NCCc2ccc(Cl)cc2)cc1	i	0.69
CC(C)(C)c1nc2c(s1)CCc1onc(-c3ccc(Br)cc3)c1-2	i	0.06
CC(C(=O)NC(C)(C)C)N1C(=O)c2cccc3cccc(c23)C1=O (stereo not drawn)	i	-0.98
COc1ccc(COc2cc(-c3cccc(OC)c3)nc3ccc(N)cc23)cc1	i	-2.13
O=C(c1cc(-c2ccc(O)cc2)on1)N1CCN(c2ccc(F)cc2)CC1	i	-0.92
Cc1cc(C)cc(NS(=O)(=O)c2ccc(Oc3ncc(C(F)(F)F)cc3Cl)cc2)c1	i	-0.15
CC1CC(C)CN(S(=O)(=O)c2ccc(NC(=O)C3CSC4(C)CCC(=O)N34)cc2)C1 (stereo not drawn)	i	-1.62
Cc1noc(C)c1S(=O)(=O)N1CCC(C(=O)N2CCN(Cc3ccc4c(c3)OCO4)CC2)CC1	i	1.18
C#Cc1ccc([C@@H]2C=C(C(=O)N3CCN(Cc4ccc5c(c4)OCO5)CC3)O[C@H](OCC)[C@H]2CCCO)cc1	i	-1.12

Later entries.
SMILES	KCNQ2 inh	KCNQ2 inh baseline
CCOc1ccc(C(=O)NCC(=O)NC(C)c2ccc(-n3ccnc3)cc2)cc1OCC (stereo not drawn)	i	-0.12
COc1ccc(CC(=O)OCC(=O)Nc2cc(S(=O)(=O)N3CCOCC3)ccc2N2CCCC2)cc1	i	0.02
CCN1CCN(Cc2coc3ccc(C)cc3c2=O)CC1	i	-0.22
CC(Sc1nnc(-c2cccs2)n1Cc1ccccc1)C(=O)NCc1ccc2c(c1)OCO2 (stereo not drawn)	-9.78*	-1.67*
CCCNC(=O)Nc1ccc2c(c1)N(C)C(=O)c1ccccc1S2	i	0.2
Clc1cccc(C2CCN(Cc3nc(COc4ccccc4)no3)C2)c1 (stereo not drawn)	i	0.07
Cc1ccc(C(=O)COC(=O)c2cnccn2)cc1C	i	-0.35
COc1cc(NC(=O)CSc2nnc(-c3cc(C)on3)o2)cc(OC)c1	i	-0.09
O=[N+]([O-])c1ccc(Nc2ccccc2O)c2nonc12	i	1.43
CCOC(=O)N1CCC(n2c(SCC(=O)NCCC3=CCCCC3)nc3ccccc3c2=O)CC1	-7.52*	-1.03*
O=C(N/N=C/c1cc2c(cc1Br)OCO2)c1cccnc1	i	-1.02
COc1ccccc1NC(=O)C1(c2ccccc2)CCCC1	i	1.96
COc1cccc(-c2cc(C(=O)NC3CCCCC3)no2)c1	i	-0.89
CCc1noc(C)c1C(=O)Nc1nc2c(C)cc(C)cc2s1	i	-0.06

Source: PubChem
